A488 autofl: qHTS Assay for Spectroscopic Profiling in A488 Spectral Region | compound autofluorescence, A488 spectral region, dye equivalency; hits give high values | max dye equivalency, M | 59,000 tested, 0.1% active | AID 591, 2007; active = above 10 nM dye equivalent; inconclusive = 1 to 10 nM; inactive = 1 nM or less; about half of its hits are not listed in these tables;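 further: highest value over a series up to 38 µM; compound alone in buffer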
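Read-out: relative fluorescence at 480/540 nm, expressed as Alexa 488 dye-equivalent concentration from a six-point A488 standard included per plate. Conditions: 100 mM Tris, pH 8.0; 15 min incubation, room temperature.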
Resorufin fluor: qHTS Assay for Spectroscopic Profiling in Resorufin Spectral Region; max dye-equivalent concentration, M; Compound fluorescence, resorufin region 547/598 nm, buffer; hits give high values; 59,000 tested, 0.04% active; AID 588, 2007; active = above 10 nM dye equivalent; inconclusive = 1 to 10 nM; inactive = 1 nM or less; a few of its hits are not listed in these tables; further: highest value over a series up to 38 µM
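Compounds in 100 mM Tris buffer, pH 8.0, incubated 15 min at room temperature, then read with 547 nm excitation and 598 nm emission filters. Fluorescence was converted to dye-equivalent concentration using an on-plate six-point resorufin standard curve.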
TSHR ag: qHTS Assay for Agonists of the Thyroid Stimulating Hormone Receptor | Thyrotropin receptor (Homo sapiens), P16473 | Potency, µM (series often up to 57.1 µM), for inactives: top-dose activation, most hits filed as activators | HEK293-CNG-TSHR cells (CNG channel as cAMP sensor), membrane potential dye, cAMP | 73,000 tested, 0.48% active; active = well fitted activation curve of enough size with the parental cells flat; inconclusive = any curve in the parental cells; inactive = parental cells flat and receptor cells flat or falling; further: potency means the concentration at half of the fitted maximal effect; % of control where 0% means no effect; weak receptor curves with flat parental cells got no call and are not listed
Target sequence (P16473 whole entry, looked up): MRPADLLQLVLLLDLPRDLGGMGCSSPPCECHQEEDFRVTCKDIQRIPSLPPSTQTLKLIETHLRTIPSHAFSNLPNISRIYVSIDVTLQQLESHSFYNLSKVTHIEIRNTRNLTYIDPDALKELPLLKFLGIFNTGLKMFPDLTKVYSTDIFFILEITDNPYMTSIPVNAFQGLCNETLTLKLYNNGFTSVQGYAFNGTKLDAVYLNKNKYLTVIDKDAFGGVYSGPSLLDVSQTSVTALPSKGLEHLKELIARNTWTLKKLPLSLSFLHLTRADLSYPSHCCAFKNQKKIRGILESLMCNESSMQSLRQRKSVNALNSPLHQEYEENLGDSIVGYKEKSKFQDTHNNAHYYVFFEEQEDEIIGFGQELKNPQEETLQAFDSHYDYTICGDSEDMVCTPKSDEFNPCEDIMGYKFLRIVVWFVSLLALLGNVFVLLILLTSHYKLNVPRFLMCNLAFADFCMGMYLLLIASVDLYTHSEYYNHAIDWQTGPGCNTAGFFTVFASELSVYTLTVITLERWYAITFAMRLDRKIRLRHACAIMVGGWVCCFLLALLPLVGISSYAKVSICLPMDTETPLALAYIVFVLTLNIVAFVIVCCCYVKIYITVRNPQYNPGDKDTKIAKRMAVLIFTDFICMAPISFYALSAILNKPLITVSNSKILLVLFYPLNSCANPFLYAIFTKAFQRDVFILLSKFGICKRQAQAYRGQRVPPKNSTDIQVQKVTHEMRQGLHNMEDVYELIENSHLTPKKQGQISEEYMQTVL
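HEK 293 cells stably expressing TSHR and a cAMP-gated CNG channel; parental CNG-only cells as counterscreen. Cells preloaded 60 min with membrane potential dye plus 100 uM RO 20-1724, then compound 30 min; fluorescence read at 590 nm.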
A647 fluor: qHTS Assay for Spectroscopic Profiling in A647 Spectral Region | Compound fluorescence, A647 channel (570/671 nm), Tris buffer | max dye-equivalent concentration, M | 59,000 tested, under 10 active | AID 592, 2007; active means above 1 µM dye equivalent; inconclusive means 0.1 to 1 µM; inactive means 0.1 µM or less;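 further: values scaled relative to a standard on each plate; highest value over a series up to 38 µM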
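Each compound's intrinsic fluorescence at 570 nm excitation and 671 nm emission is measured across its concentration series in 100 mM Tris, pH 8.0, after 15 min at room temperature, and reported relative to an A647 curve.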
AID923: qHTS Assay for Allosteric/Competitive Inhibitors of Caspase-1: Spectroscopic Profiling in AFC Spectral Region; compound fluorescence, AFC spectral region (405/520 nm); almost no hit is shown here; Potency, µM (series often up to 57.5 µM), for the others: at the highest dose fluorescence increase, most hits filed as activators; 75,000 tested, 1.1% active; AID 923, 2007; active means well fitted activation curve with a large enough effect; inconclusive means small, poorly fitted or top-dose-only effect;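 further: potency means the concentration at half of the fitted maximal effect; 0% is about no effect; scaled to a free AFC standard on each plate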
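Compound autofluorescence profiled at 405 nm ex/520 nm em during kinetic caspase 1 run (50 nM enzyme, 5 uM Ac-WEHD-AFC, HEPES pH 7.5, 10 mM DTT). Titration up to 57 uM; baseline from regression intercept, normalized to AFC standard curve.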
* marks the source's active call; other numbers are inactive results; i = inactive; ? = inconclusive; . = no result given; & = joins results of further samples; [ ] = another dose, or the depositor's remark. An excerpt (hit frequency here may not be typical).

SMILES	A488 autofl	Resorufin fluor	TSHR ag	A647 fluor	AID923
O=C(O)CC1Sc2ccccc2NC1=O (stereo not given)	.	.	11%	.	3.8%
N#C/C(=C(/N)Sc1ccc(N)cc1)c1ccccc1C(F)(F)F	.	.	25%	.	-1.9%
COC(=O)C1=C(C(=O)c2ccc(C)cc2)C(c2ccc(O)c(OC)c2)n2nnnc2N1 (stereo not given)	i	i	22%	1.2e-08	-1.0%
COc1ccc(NC(=O)Cn2nnc(-c3ccccc3F)n2)cc1	i	i	3%	2.6e-08	1.8%
CN(c1ccccc1)S(=O)(=O)c1cc(C(=O)N2CCN(c3ccccn3)CC2)ccc1Cl	i	i	0%[11.4 µM]	2.7e-08	-0.6%
Cc1nn(Cc2ccc(C(=O)NC3CCCCC3)o2)c(C)c1Br	i	i	33%	9.6e-09	-2.2%
O=c1nc(C(F)(F)F)nc2ccccn12	i	i	0%	1e-09	0.4%
Cc1ccc(Nc2oc(C)nc2C#N)cc1	i	i	1%	6.2e-09	-0.6%
O=C(NCc1cc(F)cc2c1OCCO2)[C@H]1C[C@@H]1[C@H](NP(=O)(c1ccccc1)c1ccccc1)c1ccccc1	.	.	?	.	1.2%
CCOC(=O)C1CCCN(C(=O)c2ccc(OCC)cc2)C1 (stereo not given)	.	.	3%[11.4 µM]	.	0.2%
Cc1ccc(CNC(=O)CN(C)S(=O)(=O)c2cccc3cccnc23)cc1	.	.	7%	.	-0.6%
CCOCCc1nnc(NC(=O)c2ccc(OC)c(OC)c2)s1	i	i	-6%	1.5e-08	2.0%
O=C(Cn1nnc(-c2ccncc2)n1)N1CCc2ccccc21	i	i	-3%	1.7e-09	-2.2%
Cc1ccc(S(=O)(=O)N(Cc2ccc(F)cc2)Cc2ccco2)cc1	i	i	?	5.7e-09	-0.5%
O=C(CCCn1nnc(-c2cccnc2)n1)c1ccc(F)cc1	i	i	10%	1e-09	0.1%
CCOc1ccc(N2C(=O)CC(N3CCN(c4ccc(C(=O)c5ccncc5)cc4)CC3)C2=O)cc1 (stereo not given)	i	i	-6%	4.4e-09	-0.6%
Cc1cc2c(cc1C)NC(c1cccnc1)C1=C(CC(C)(C)CC1=O)N2 (stereo not given)	i	i	.	7.3e-08	-1.0%
COc1cccc(CNC2CCCC2)c1	.	.	5%	.	-0.6%
O=C(O)CSc1cc(-c2ccccc2)nc2ccccc12	i	i	2%[11.4 µM]	1e-09	1.1%[11.5 µM]
Cc1ccc(NC(=O)CSCC(N)=O)cc1C	i	i	26%	1.7e-09	20%

Shown in CSV form: part of the list above.
Structure,A488 autofl,Resorufin fluor,TSHR ag,A647 fluor,AID923
N#C/C(=C(/N)Sc1ccc(N)cc1)c1ccccc1C(F)(F)F,.,.,25%,.,-1.9%
COC(=O)C1=C(C(=O)c2ccc(C)cc2)C(c2ccc(O)c(OC)c2)n2nnnc2N1 (stereo not given),i,i,22%,1.2e-08,-1.0%
COc1ccc(NC(=O)Cn2nnc(-c3ccccc3F)n2)cc1,i,i,3%,2.6e-08,1.8%
CN(c1ccccc1)S(=O)(=O)c1cc(C(=O)N2CCN(c3ccccn3)CC2)ccc1Cl,i,i,0%[11.4 µM],2.7e-08,-0.6%

Next part.
SMILES	A488 autofl	Resorufin fluor	TSHR ag	A647 fluor	AID923
NCCNS(=O)(=O)c1cccc2c(Cl)cccc12	.	.	18%	.	-0.4%&-0.4%
O=C(c1ccco1)N1CCN(C2CCCC2)CC1	.	.	0%	.	-0.3%
COc1ccccc1CN(Cc1cc2cc(C)ccc2[nH]c1=O)Cc1nnnn1Cc1ccco1	i	i	?	5e-08	17%
CC1CCCCN1C(=O)CSc1nnc(-c2ccc(Cl)s2)o1 (stereo not given)	i	i	?	1e-09	1.0%
CCOC(=O)c1cc(CN2CCOCC2)oc1-c1ccccc1	i	i	20%	4.4e-09	1.0%
Cn1c(=O)n(CC(=O)Nc2cccnc2)c2ccccc21	i	i	-2%	4e-08	-1.9%
CC1CCCCC1NC(=O)c1ccc(CNc2c(N3CCCC3)c(=O)c2=O)cc1 (stereo not given)	.	.	0%	.	-1.5%
O=C(CSc1nc2cc(Cl)ccc2s1)NC(=O)NCc1ccco1	i	i	-2%	4.6e-08	1.3%
Cc1cccc(C)c1N1C(=O)c2ccccc2C1=O	.	.	8%	.	-1.0%
CCn1c(SCC(=O)Nc2cccc(NC(=O)c3cccs3)c2)nnc1-c1ccncc1	i	i	4%	4.2e-09	-1.9%
O=C(NC1CCCCC1)N1CCC(c2nc3ccccc3[nH]2)CC1	i	i	1%	2.2e-08	1.5%
CC(C)[C@H](NC(=O)NCc1ccco1)C(=O)O	i	i	13%	1.7e-08	0.6%
Cn1cc(Cl)c(C(=O)N(Cc2ccccc2)c2ccccn2)n1	.	.	8%	.	2.3%
O=C(CN1CCOCC1)Nc1ccc(S(=O)(=O)N2CCCCCC2)cc1	i	i	2%	1e-09	-0.9%
COc1cccc(C(=O)N(c2ccc(OC)cc2OC)C2C=CS(=O)(=O)C2)c1 (stereo not given)	i	i	0%[11.4 µM]	1e-09	-1.8%
COC(=O)c1ccccc1NC(=O)c1ccccc1NS(C)(=O)=O	i	i	?	1e-09	1.9%
CN(C)CCN(C)C(=O)c1ccc(-n2c(=O)c(=O)[nH]c3ccccc32)cc1	.	.	4%	.	3.1%
COc1ccccc1CCNC(=O)c1cnn2c(C(F)F)cc(C)nc12	.	.	25%	.	1.5%
Cc1nc(=O)c(-c2ccccc2)c(C)n1-c1ccc(C(=O)O)cc1	.	.	-1%[11.4 µM]	.	4.7%
CCCCOC(=O)c1ccc(NC(=O)c2ocnc2C)cc1	i	i	-1%	9.4e-09	-0.4%

Individual results from above.
Cc1nc(=O)c(-c2ccccc2)c(C)n1-c1ccc(C(=O)O)cc1 in TSHR ag: -1%[11.4 µM]
CCOC(=O)c1cc(CN2CCOCC2)oc1-c1ccccc1 in AID923: 1.0%
Cn1cc(Cl)c(C(=O)N(Cc2ccccc2)c2ccccn2)n1 in AID923: 2.3%
COc1ccc(NC(=O)Cn2nnc(-c3ccccc3F)n2)cc1 in TSHR ag: 3%
O=C(O)CSc1cc(-c2ccccc2)nc2ccccc12 in AID923: 1.1%[11.5 µM]
O=C(CSc1nc2cc(Cl)ccc2s1)NC(=O)NCc1ccco1 in TSHR ag: -2%
CN(C)CCN(C)C(=O)c1ccc(-n2c(=O)c(=O)[nH]c3ccccc32)cc1 in TSHR ag: 4%

Next entries.
SMILES	A488 autofl	Resorufin fluor	TSHR ag	A647 fluor	AID923
Cc1c(C(=O)Nc2ccc(F)cc2)oc2ccc(S(=O)(=O)N3CCC4(CC3)OCCO4)cc12	i	i	12%	5e-08	0.4%
CCN(CC)S(=O)(=O)c1ccc2c(c1)c(=O)c(C(=O)NCCCN(C)c1ccccc1)cn2C	i	i	-1%	2.8e-08	0.2%
COCCNC(=O)CN(c1cccc(OC)c1)S(=O)(=O)c1ccc(C)cc1	.	.	-19%	.	1.3%
COC(=O)Cn1cnc2c(nnn2Cc2ccc(Cl)cc2)c1=O	i	i	-8%	1.1e-09	1.6%
O=C(CN(Cc1ccco1)S(=O)(=O)c1cccs1)Nc1ccccc1C(F)(F)F	i	i	?	2.9e-09	-1.5%
Cc1ccc(-n2c(SCC(=O)NCc3cccs3)nnc2-c2ccoc2C)cc1	i	i	?	3.9e-08	0.5%
COc1ccccc1NC(=O)C1CCCCN1S(=O)(=O)c1ccc(F)cc1 (stereo not given)	i	i	-5%	3.9e-08	0.4%
CCOC(=O)C1=C(C)Nc2nc(SCc3cccnc3)nn2C1c1ccc(OC)cc1 (stereo not given)	.	.	10%	.	-1.6%
O=C(CCc1nc(-c2ccccc2F)no1)Nc1ccc(Oc2ccccc2)cc1	i	i	6%	8.9e-09	-1.6%
Cc1ccccc1-c1ccc2ncnc(N(C)C)c2c1	i	i	?	1.7e-08	1.3%
CC(CCc1ccccc1)NC(=O)CN1CCOc2ccccc21 (stereo not given)	.	.	15%	.	-2.0%
O=C(O)CCCC(=O)Nc1ccccc1C(=O)O	i	i	-2%	3.2e-09	1.3%
CCSc1ccccc1C(=O)NCc1ccc(S(N)(=O)=O)cc1	i	i	27%	1e-09	0.4%
CCCCN1c2cc(C)c(O)cc2C(C(=O)OCC)C1C (stereo not given)	i	i	-2%	1e-09	0.5%
COc1ccc(C2=NCC(CSc3nnnn3C)S2)cc1 (stereo not given)	i	i	12%	2.7e-08	0.4%
C=CCn1c(SCC(=O)Nc2ccc3c(c2)OCCO3)nnc1-c1ccccn1	i	i	-5%	9.3e-09	3.1%
Cc1cc(C(=O)Nc2ccccc2C(F)(F)F)no1	i	i	16%	1.4e-09	-1.6%
CCOC(=O)N1CCC(NC(=O)CCC(=O)N2CC(C)Oc3ccc(Cl)cc32)CC1 (stereo not given)	i	i	12%	5.1e-09	1.7%
COc1cc(OC)cc(-c2nnc(Nc3nc4c(F)cccc4s3)o2)c1	i	i	-5%	1e-09	0.3%
CC1(C)CC(NC(=O)CC2CCCCC2)CC(C)(C)N1	i	i	-9%	3.7e-08	-1.1%
Nc1cc(S(=O)(=O)O)cc2ccc(S(=O)(=O)O)cc12	i	i	-1%[11.4 µM]	2.3e-08	1.1%[11.5 µM]
Cc1cc(N2CCN(C)CC2)nc2ccc(NC(=O)c3ccc(Br)o3)cc12	i	i	-2%[11.4 µM]	2.3e-08	1.1%
CCOCC(=O)Nc1c(C(=O)Nc2ccc(OC)cc2OC)oc2ccccc12	i	i	24%	3.3e-08	-0.7%
CCCC1c2c(ccc3ccccc23)Oc2ccc3ccccc3c21	i	i	1%[11.4 µM]	1e-09	2.5%[11.5 µM]
Cn1c(COc2ccccc2)nnc1SCC(=O)Nc1ccc(N2CCOCC2)c(Cl)c1	i	i	-4%	1e-09	0.7%
CC1CCCCN1c1nc(-c2ccncc2)nc2ccccc12 (stereo not given)	i	i	?	4.5e-08	-2.2%
CC1Cc2ccccc2N1S(=O)(=O)c1cccc(C(=O)c2nccn2C)c1 (stereo not given)	i	i	?	1e-09	-0.4%
Cn1c(=O)cc(OCCCC(=O)Nc2cccnc2)c2ccccc21	i	i	?	2.4e-08	-0.7%
Cc1ccc(NC(=O)c2cc(S(=O)(=O)N3CCC4(CC3)OCCO4)ccc2F)cc1	i	i	22%	2.3e-09	-1.6%
COCCCNC(=O)c1ccccc1SC	i	i	-1%	3.9e-09	-1.1%
Cc1cc(N2CCC(C(=O)Nc3ccc(F)cc3)CC2)nc(-c2ccccc2)n1	i	i	4%	3.8e-08	-2.2%
O=C(NCCCN1CCCC1=O)c1cccnc1	i	i	?	2.7e-08	0.4%
O=C(O)CSc1nnc(Cc2ccccc2)n1Cc1ccccc1	i	i	9%	1e-09	-0.7%
COc1ccc(C(=O)Nc2ccc(Cl)c(Cl)c2)c(OC)n1	i	i	?	5.2e-09	-2.4%
CCc1cccc(CC)c1N(COC)C(=O)Cn1c(C(C)O)nc2ccccc21 (stereo not given)	i	i	8%	3.5e-08	-2.3%
Cc1nnc(SCc2cccs2)[nH]c1=O	i	i	2%	7.7e-09	-2.9%
Cc1c(C#N)c2ncn(CCCN(C)C)c(=O)c2n1-c1ccccc1	i	i	0%[11.4 µM]	4.2e-08	0.3%
Cc1ccc(N2CC(C(=O)N3CCc4ccccc4C3)CC2=O)cc1 (stereo not given)	i	i	0%	9.2e-09	1.1%
CCOC(=O)C1CCN(C(c2cccs2)c2sc3nc(C)nn3c2O)CC1 (stereo not given)	.	.	2%	.	-6.0%
COc1ccccc1NC(=O)C1CCCN(S(=O)(=O)c2cccc3nsnc23)C1 (stereo not given)	i	i	-2%	3e-08	2.3%
COc1ccc(C(=O)Nc2ccc3c(c2)OCO3)cc1OC	.	.	1%	.	2.2%
CC(C)=CC(=O)OCC(=O)Nc1nc(C)c(Cl)cc1Cl	i	i	1%	2.8e-08	-1.1%
CC1CCN(C(=O)CSc2nc3ccccc3[nH]2)CC1	.	.	6%	.	-0.9%
